Screens from PubChem.
Mtb growth: Mycobacterium tuberculosis H37Rv growth inhibition, cell based, confirmatory dose response (AID 1949); most inactive calls were filed without a number and no value below 0 was filed; inhibition, % at 10 µg/mL, or IC50 in µg/mL where a hit was titrated; actives 1.6% (n = 100,000);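 active means confirmed in a dose series; inconclusive means about 50% or more but not retested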;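 further: bacteria grown 7 days with compound before Alamar blue readout; 0% = untreated bacteria and 100% = reference antibiotic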
* hit, by the source's call. Some of the compounds tested (hit frequency here may not be typical).

For Nc1nc(CN2C(=O)c3ccccc3C2=O)cs1 the results were Mtb growth inactive.
Screening O=C(Nc1ccccc1Cl)c1ccc2c(c1)C1C3CCC(C3)C1C(c1ccccc1)N2 (stereo not drawn) returned Mtb growth 27%.
Screening Cc1ccc(NC(=O)CCc2ccc(S(=O)(=O)NCCc3ccccc3)cc2)cc1C returned Mtb growth inactive.
For CC1CN(C)C(C)c2c1oc1c([N+](=O)[O-])cccc21 (stereo not drawn) the results were Mtb growth inactive.
`CC(=O)Nc1cccc(NC(=O)c2oc3ccccc3c2C)c1` gave Mtb growth inactive.
O=C(CCc1ccccc1)Nc1ccc(Cl)cc1F was read as Mtb growth inactive.
`CCC(CC)C(=O)N1CCN(c2ccc(F)cc2)CC1` gave Mtb growth inactive.
Screening COc1cccc(S(=O)(=O)Nc2ccc(C(=O)NCCc3ccccc3)cc2)c1 returned Mtb growth 0%.
NCC1CCN(Cc2ccccc2Cl)CC1 was read as Mtb growth inactive.
`Cc1ccsc1/C=C\c1nc(O)c([N+](=O)[O-])c(=O)[nH]1` gave Mtb growth inactive.
CCCN=C(NS(=O)(=O)c1ccc(Cl)cc1)c1ccc(Cl)cc1 was read as Mtb growth 1%.
For O=C(c1cccc(C(=O)N2CCc3ccccc32)n1)N1CCc2ccccc21 the results were Mtb growth 6%.
Cc1cc(C)c(Nc2nnc(C)c(=O)[nH]2)c(C)c1 was read as Mtb growth inactive.
CCOc1ccc(S(=O)(=O)NC(=O)c2ccccc2)cc1 was read as Mtb growth inactive.
COc1ccc(C(=O)COc2cc3oc(=O)c4c(c3cc2Cl)CCCC4)cc1 was read as Mtb growth inactive.
Screening CC(C)Oc1ccc(CN(CCC(c2ccccc2)c2ccco2)C(=O)c2ccco2)cc1 (stereo not drawn) returned Mtb growth inactive.
Cc1oc2c(C)c(OC(=O)c3cccs3)ccc2c(=O)c1-c1nc2ccccc2s1 was read as Mtb growth inactive.
Screening S=C(NCc1ccco1)N1CCN(c2ncccn2)CC1 returned Mtb growth inactive.
Screening CC(C)C(=O)N1CCN(c2ccc(NC(=O)Cc3ccc(Cl)cc3)cc2)CC1 returned Mtb growth inactive.
For CCCS(=O)(=O)c1c(S(=O)(=O)CCC)c2cnccn2c1C(=O)c1ccc(CC)cc1 the results were Mtb growth inactive.
Screening Cc1ccn(C(=O)C(C)Oc2ccc(Cl)cc2Cl)n1 (stereo not drawn) returned Mtb growth inactive.
Screening O=C1CC(N2CCc3ccccc32)C(=O)N1c1cccc(C(F)(F)F)c1 (stereo not drawn) returned Mtb growth inactive.
For N#Cc1c(-c2ccccc2)nc(SCC(=O)Nc2nc3ccc([N+](=O)[O-])cc3s2)[nH]c1=O the results were Mtb growth inactive.
For O=c1ccc2cc(S(=O)(=O)Nc3ccc(F)cc3)ccc2o1 the results were Mtb growth 1%.

Random excerpt: two compounds from above
CCOc1ccc(S(=O)(=O)NC(=O)c2ccccc2)cc1 was read as Mtb growth inactive.
For O=c1ccc2cc(S(=O)(=O)Nc3ccc(F)cc3)ccc2o1 the results were Mtb growth 1%.

(further entries)
For O=C(Nc1ccc(N2CCOCC2)cc1)c1cnsn1 the results were Mtb growth inactive.
For CCN(CC)S(=O)(=O)c1ccc(OC)c(NC(=O)c2cc3ccccc3o2)c1 the results were Mtb growth inactive.
c1ccc2c(-c3nc(-c4ccncc4)no3)cccc2c1 was read as Mtb growth inactive.
Screening Cc1ccc(NC(=O)CSc2nnc(-c3ccncc3)n2N)cc1F returned Mtb growth inactive.
For Cc1ccc(C(=O)Nc2ccc(N3CCN(C)CC3)cc2)c(Cl)c1 the results were Mtb growth 0%.
For CCSc1nnc(-c2ccc(Cl)cc2)n1-c1ccc(OC)cc1 the results were Mtb growth inactive.
For CCOC(=O)C(=O)Nc1nc(C)cs1 the results were Mtb growth inactive.
For Nc1nc(-c2ccccc2)nn1C(=O)c1cccs1 the results were Mtb growth 4%.
Screening Nc1nc(COc2cccc3cccnc23)nc(Nc2ccccc2)n1 returned Mtb growth inactive.
`Cc1cc(C)cc(C(=O)Nc2cccc(Br)c2)c1` gave Mtb growth 12%.
For COc1ccc(-c2cc(=O)c3cc(Cl)ccc3o2)cc1OC the results were Mtb growth inactive.
Screening COc1ccccc1OCC(=O)Nc1ccc(S(=O)(=O)N2CCCC2)cc1 returned Mtb growth inactive.
Screening Cc1cc2ncc(C(=O)Nc3ccccc3)c(C)n2n1 returned Mtb growth 0%.
For Cc1ccc(CNc2oc(-c3ccc(C)cc3)nc2C#N)cc1 the results were Mtb growth 4%.
`O=C(CCNc1cccc(Cl)c1)c1ccc([N+](=O)[O-])cc1` gave Mtb growth 2.9µg/mL*.
Cc1c(Nc2cc(=O)oc3ccccc23)c(=O)n(-c2ccccc2)n1C was read as Mtb growth inactive.
Screening O=C(c1ccccc1)N1N=C(c2ccco2)CC1c1cccs1 (stereo not drawn) returned Mtb growth 1%.
For COc1ccc(NC(=O)c2ccc(Cn3cc(Cl)cn3)cc2)cc1OC the results were Mtb growth inactive.
Cc1cccc(NC(=O)C2C3C=CC(C3)C2C(=O)O)c1C (stereo not drawn) was read as Mtb growth inactive.
For COC(=O)c1ccc(NC(=O)c2ccccc2SC)cc1 the results were Mtb growth inactive.
`CCOC(=O)c1nn(-c2ccccc2C)c(=O)c2c(N)scc12` gave Mtb growth inactive.
`COc1ccc(CC(=O)Nc2ccc(OC)c(NC(=O)c3ccco3)c2)cc1` gave Mtb growth inactive.
`CCOC(=O)c1sc(NC(=O)C(C)Oc2ccc(Cl)cc2Cl)nc1C` (stereo not drawn) gave Mtb growth 6%.
`O=C(COc1cc(N2CCOCC2)c2ccccc2c1Cl)N1CCc2ccccc21` gave Mtb growth inactive.
For S=C(Nc1ccc(Nc2ccccc2)cc1)N1CCN(c2ccccn2)CC1 the results were Mtb growth inactive.
Screening COCCNC(=O)c1cc(-c2ccc(C)c(C)c2)nc2ccccc12 returned Mtb growth inactive.
COc1ccc(C(=O)Nc2ccc(N3CCN(Cc4ccccc4F)CC3)cc2)cc1 was read as Mtb growth inactive.
For CCOc1ccc(Br)cc1C(=O)NCCc1ccc(OC)c(OC)c1 the results were Mtb growth inactive.
For O=C(c1cc(-c2ccc(Br)cc2)nc2ccccc12)N1CCCC1 the results were Mtb growth inactive.
COC(=O)c1ccc(C=NN2CCN(Cc3ccccc3Cl)CC2)cc1 was read as Mtb growth inactive.
Screening Cc1cc(OCC(=O)Nc2cc(Cl)ccc2Cl)cc(C)c1Br returned Mtb growth inactive.
For CC(=O)C(C)Oc1cc2oc(=O)cc(C)c2cc1Cl (stereo not drawn) the results were Mtb growth inactive.
Screening CCC(C)NC(=O)C(=O)Nc1ccc(Cl)c(Cl)c1 (stereo not drawn) returned Mtb growth inactive.
`CS(=O)(=O)Nc1nc2n(n1)C(c1ccccc1)C=C(c1ccccc1)N2` (stereo not drawn) gave Mtb growth 30%.
CCCCc1ccc(NC(=O)CCc2ccc(S(=O)(=O)NCc3ccccc3)cc2)cc1 was read as Mtb growth inactive.
CS(=O)(=O)N(CC(=O)N1CCC(Cc2ccccc2)CC1)Cc1ccccc1 was read as Mtb growth inactive.
`CCCOc1cc2oc(=O)cc(C)c2cc1Cl` gave Mtb growth inactive.
CC1=C(C(=O)Nc2ccccc2)C(c2ccncc2)n2nc(SCc3ccccc3)nc2N1 (stereo not drawn) was read as Mtb growth inactive.
CCN(CC)C(=S)Nc1ccccc1Cl was read as Mtb growth inactive.
Cc1cc(CN(C)C)c(O)c(C2(C)CCCCC2)c1 was read as Mtb growth inactive.
For N#C/C(=C/c1ccco1)c1ccc(F)cc1 the results were Mtb growth inactive.
O=C(Nc1ncc(Cc2cccc3ccccc23)s1)C1CCCCC1 was read as Mtb growth 1%.
For O=[N+]([O-])c1ccc(SCc2ccco2)c2cccnc12 the results were Mtb growth 3%.
Screening COc1ccc(OC)c(NC(=O)C(=O)NCC2CCCO2)c1 (stereo not drawn) returned Mtb growth 1%.
For O=C(Nc1ccccc1NC(=O)C(Cl)Cl)C(Cl)Cl the results were Mtb growth inconclusive.
For Cc1ccc(COc2ccccc2C(=S)N2CCN(c3ccccc3F)CC2)cc1 the results were Mtb growth 41%.
For COc1cccc(C(=O)Nc2ccccc2N2CCCC2)c1 the results were Mtb growth inactive.
Screening Brc1ccc(CSc2nc3ccccc3o2)cc1 returned Mtb growth inactive.
For COc1cccc(COc2cc(C)cc3oc(=O)c(C)c(C)c23)c1 the results were Mtb growth inactive.
For CCn1c(/C=C/c2ccccc2)nc2ccccc21 the results were Mtb growth inactive.
Screening CC1CN(S(=O)(=O)Cc2ccccc2)CC(C)O1 (stereo not drawn) returned Mtb growth inactive.
Screening COc1cc([N+](=O)[O-])ccc1NC(=O)C1(c2ccccc2)CCCC1 returned Mtb growth 5%.
O=C(NC(=S)Nc1ccc(S(=O)(=O)N2CCc3ccccc32)cc1)c1ccc(Br)o1 was read as Mtb growth 42%.
For CCCCOCCCNC(=O)C(C)CCC (stereo not drawn) the results were Mtb growth inactive.
For COc1ccc(Cl)cc1NC(=S)N1CCN(Cc2ccc3c(c2)OCO3)CC1 the results were Mtb growth inactive.
`Cc1c(Cl)cccc1NC(=S)N1CCN(Cc2ccc3c(c2)OCO3)CC1` gave Mtb growth inactive.
Screening Cc1ccccc1-n1c(C)cc(C(=O)O)c1C returned Mtb growth inactive.
Screening Cc1ccc(Cl)cc1NC(=O)COc1c(C)ccc(C)c1C returned Mtb growth 18%.
N#CCCOC1(C#CCN2CCCCC2)CCCCC1 was read as Mtb growth inactive.
`O=C(N=Nc1c(O)[nH]c2ccccc12)c1n[nH]c2c1CCCC2` gave Mtb growth 20%.
For COc1ccc(C2(C(=O)NC(C)(C)CO)CCCC2)cc1OC the results were Mtb growth inactive.
COC(=O)C1=CN(Cc2ccc(OC)cc2)C=C(C(=O)OC)C1c1cc(Cl)c(O)c(OC)c1 was read as Mtb growth 1%.
`COc1ccc(S(=O)(=O)NC2CCCCC2)cc1NC(C)=O` gave Mtb growth inactive.
`Fc1cccc(NC(=S)NC(c2ccccc2)c2ccccc2)c1` gave Mtb growth inactive.
`CC(=O)c1cccc(NS(=O)(=O)c2c(C)cc(C)cc2C)c1` gave Mtb growth inactive.
`CCC(=O)NC(=S)Nc1ccc(NC(=S)NC(=O)c2ccc(C)c(Cl)c2)cc1` gave Mtb growth inactive.
Screening Cc1ccccc1C(=O)NC(=S)Nc1ccc(-c2nc3cc(C(C)C)ccc3o2)cc1 returned Mtb growth inactive.
`O=C(C1CCCN(Cc2cccc(F)c2)C1)N1CCCC1` (stereo not drawn) gave Mtb growth inactive.
Screening COC(=O)c1c(NC(=S)NC(C)c2ccc3c(c2)OCO3)sc(C(=O)N(C)C)c1C (stereo not drawn) returned Mtb growth inactive.
Screening CCCC(=O)c1ccc(N2CCN(C(=O)c3ccccc3Br)CC2)c(F)c1 returned Mtb growth 8%.
Screening Cc1cc(C)cc(CSCC(=O)N2CCN(C(=O)CSCc3cc(C)cc(C)c3)CC2)c1 returned Mtb growth inactive.
For OCc1cc(Br)ccc1OCc1ccccc1F the results were Mtb growth inactive.
Screening O=c1oc2cc(OCc3ccccc3Br)ccc2c2ccccc12 returned Mtb growth inactive.
Screening COc1cc(C(=O)Nc2ccc(N3CCCC3=O)cc2)cc(OC)c1OC returned Mtb growth inactive.
For CCCn1c2ccc(F)cc2c2nnc(SCCN3CCOCC3)nc21 the results were Mtb growth inactive.
CCOc1ccc(NC(=O)C(C)NS(=O)(=O)c2cc(C)ccc2C)cc1 (stereo not drawn) was read as Mtb growth inactive.
O=C(NC1CCCCCC1)C1CCCO1 (stereo not drawn) was read as Mtb growth inactive.
Screening COc1cc(C2NC(=S)NC(c3ccccc3)=C2C(=O)c2ccccc2)cc(Cl)c1O (stereo not drawn) returned Mtb growth inactive.
Screening COc1cc(S(=O)(=O)N2CCN(C)CC2)c(C)cc1C returned Mtb growth 4%.
COC(=O)C1=CN(C(C)C)C=C(C(=O)OC)C1c1cc(OC)c(OC)cc1OC was read as Mtb growth inactive.
`COc1ccc(Cl)cc1NC(=S)NCc1cc(C)n(C)n1` gave Mtb growth inactive.
`Cc1cc(CNC(=O)c2cc(-c3ccccc3)nc3ccccc23)nn1C` gave Mtb growth 2%.
For O=C(CN1CCCCC1)Nc1ccc(Oc2ccc(NC(=O)CN3CCCCC3)cc2)cc1 the results were Mtb growth inactive.
Screening COc1ccc(S(=O)(=O)Nc2ccc(S(=O)(=O)Nc3ccc(C)c(C)c3)cc2)cc1C returned Mtb growth inactive.
CC(C)c1ccccc1OCC(=O)Nc1cc(Cl)cc(Cl)c1 was read as Mtb growth inactive.
Screening Cc1cc(OCC(=O)c2ccc(Cl)cc2)c2c(C)c(C)c(=O)oc2c1 returned Mtb growth inactive.
COc1ccc(S(=O)(=O)NCc2ccco2)cc1C(=O)O was read as Mtb growth inactive.
For Nc1nc(-c2cccnc2)nn1C(=O)c1ccccc1Cl the results were Mtb growth inactive.
For Cc1cc(C(F)(F)F)nc(SCCN2CCCCC2)c1C#N the results were Mtb growth 3%.

Of the compounds above, these contain fluorine.
O=C(CCc1ccccc1)Nc1ccc(Cl)cc1F was read as Mtb growth inactive.
`CCC(CC)C(=O)N1CCN(c2ccc(F)cc2)CC1` gave Mtb growth inactive.
Screening O=C1CC(N2CCc3ccccc32)C(=O)N1c1cccc(C(F)(F)F)c1 (stereo not drawn) returned Mtb growth inactive.
For O=c1ccc2cc(S(=O)(=O)Nc3ccc(F)cc3)ccc2o1 the results were Mtb growth 1%.
Screening Cc1ccc(NC(=O)CSc2nnc(-c3ccncc3)n2N)cc1F returned Mtb growth inactive.
COc1ccc(C(=O)Nc2ccc(N3CCN(Cc4ccccc4F)CC3)cc2)cc1 was read as Mtb growth inactive.
For N#C/C(=C/c1ccco1)c1ccc(F)cc1 the results were Mtb growth inactive.
For Cc1ccc(COc2ccccc2C(=S)N2CCN(c3ccccc3F)CC2)cc1 the results were Mtb growth 41%.
`Fc1cccc(NC(=S)NC(c2ccccc2)c2ccccc2)c1` gave Mtb growth inactive.
`O=C(C1CCCN(Cc2cccc(F)c2)C1)N1CCCC1` (stereo not drawn) gave Mtb growth inactive.
Screening CCCC(=O)c1ccc(N2CCN(C(=O)c3ccccc3Br)CC2)c(F)c1 returned Mtb growth 8%.
For OCc1cc(Br)ccc1OCc1ccccc1F the results were Mtb growth inactive.
For CCCn1c2ccc(F)cc2c2nnc(SCCN3CCOCC3)nc21 the results were Mtb growth inactive.
For Cc1cc(C(F)(F)F)nc(SCCN2CCCCC2)c1C#N the results were Mtb growth 3%.
